Screening results as filed in PubChem.
Cruzain inh noDet – cruzain (T. cruzi) inhibition without detergent; P25779; purified cruzain, Z-FR-AMC fluorescence, no detergent; Potency, µM, without a hit: max response, negative = inhibition, usual class: inhibitors; 2.3% of 200,000 active;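 also: plate controls were enzyme without inhibitor for no effect and buffer without enzyme for full effect; nearly all actives have a fitted effect of over 40% in size; top concentration of the series not given in the record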
Target sequence (P25779 123-467 limits assumed): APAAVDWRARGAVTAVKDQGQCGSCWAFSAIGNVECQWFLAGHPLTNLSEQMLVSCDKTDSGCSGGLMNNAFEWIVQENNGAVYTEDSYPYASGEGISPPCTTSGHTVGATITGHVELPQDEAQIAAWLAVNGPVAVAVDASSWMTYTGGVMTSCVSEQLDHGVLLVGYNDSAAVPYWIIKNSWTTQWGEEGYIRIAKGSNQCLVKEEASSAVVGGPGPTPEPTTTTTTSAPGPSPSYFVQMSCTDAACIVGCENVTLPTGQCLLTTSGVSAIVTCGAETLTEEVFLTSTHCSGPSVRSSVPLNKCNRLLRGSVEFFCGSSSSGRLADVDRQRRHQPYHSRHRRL
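Detergent-free condition (0.00005% Triton X-100) in acetate buffer pH 5.5 with DTT. 1.5 nM enzyme and compound were pre-mixed 15 min, then 2 uM Z-FR-AMC substrate added; reaction progress from fluorescence change between first and third reads (60 s).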
RE007 growth inh – less growth of the S. pombe RE007 Vpr strain | S. pombe RE007 Vpr strain, BacTiter-Glo ATP luminescence, 24 h; control for the full effect not named in the record | Potency, µM (top dose mostly 92.2 µM), for the others: at the top dose activity change, negative = less growth | 0.21% of 360,000 active; active = well fitted falling curve with a large enough effect; inconclusive = small, poorly fitted or top-dose-only effect; inactive = no such curve, though single readings can be large or run the other way;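 also: % is scaled to controls: 0 for no effect and ±100 for the full control effect; nearly all actives have a fitted effect of over 50% in size; the assay follows cell death caused by Vpr and the record does not say whether a fall means rescue or toxicity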
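Fission yeast strain RE007, carrying one chromosomally integrated HIV-1 vpr copy, was seeded at OD 0.01 in PMG+AL medium with 23 nL pinned compound. After 24 h at 30 °C and 99% humidity, viability was read by BacTiter-Glo luminescence.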
Cruzain Triton – inhibitors of Trypanosoma cruzi cruzain with detergent; P25779; purified cruzain, Z-FR-AMC fluorescence, 0.01% Triton; Potency, µM, inactives show max response, negative = inhibition, usual class: inhibitors; 0.43% of 200,000 active; AID 1478;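 also: plate controls were neutral wells for no effect and buffer without enzyme for full effect; nearly all actives have a fitted effect of over 40% in size; top concentration of the series not given in the record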
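In this qHTS format, compounds are incubated with 1.5 nM cruzain for 15 min at room temperature before 2 uM Z-FR-AMC is added. Release of AMC is followed at 360/450 nm, and progress is taken as the 60 s fluorescence difference.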
NS1 function inh – influenza NS1 inhibition; S. cerevisiae slowed by influenza A NS1, growth recovery by OD600; Potency, µM (highest dose often 46.1 µM), inactives show at the highest dose activity, positive = more growth; 0.4% of 270,000 active; active means well fitted rising curve with a large enough effect; inconclusive means small, poorly fitted or top-dose-only effect; inactive means no such curve, though single readings can be large or run the other way; also: nearly all actives have a fitted effect of over 50% in size
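S. cerevisiae expressing influenza A NS1, grown in glucose, washed, then diluted 1:100 into pH 6.0 -URA galactose medium with 23 nl compound. Growth recovery read as OD600; NS1-free strain serves as control.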
SARS PLP yeast – SARS-CoV PLP inhibition in yeast | S. cerevisiae expressing SARS-CoV PLpro, growth rescue; control for the full effect not named in the record | Potency, µM (doses to about 32.9 µM), for the others: at the highest dose activity, positive = growth rescue | 0.19% of 330,000 active; active means well fitted rising curve with a large enough effect; inconclusive means small, poorly fitted or top-dose-only effect; inactive means no such curve, though single readings can be large or run the other way; also: 0% is about no effect; nearly all actives have a fitted effect of over 55% in size; growth read by luminescence after 48 h
StopGo reporter – FMDV 2A StopGo reporter, luciferase signal | human cells with a luciferase reporter of 2A StopGo recoding; control for the full effect not named in the record | AID 1159524 | 1.2% of 410,000 active | Potency, µM (series often up to 57.9 µM), for the others: at the highest dose signal change, negative = less light; active = well fitted falling curve with a large enough effect; inconclusive = small, poorly fitted or top-dose-only effect; inactive = no such curve, though single readings can be large or run the other way; tested in HEK293T cells; also: % is scaled to controls: 0 for no effect and ±100 for the full control effect; nearly all actives have a fitted effect of over 45% in size; luciferase light after 4 h
LASV entry inh – inhibitors of Lassa virus binding or cell entry; AID 540256; Lassa virus pseudotype entry inhibition, cell reporter; control for the full effect not named in the record; Potency, µM (top dose mostly 37.9 µM), inactives show at the highest dose activity change, negative = inhibition, most hits filed as inhibitors; 1.2% of 300,000 active; active means well fitted inhibition curve with a large enough effect; inconclusive means small, poorly fitted or top-dose-only effect, or effect the other way; inactive means flat fitted curve, though single readings scatter; tested in HEK293 cells; also: % is scaled to controls: 0 for no effect and ±100 for the full control effect; nearly all actives have a fitted effect of over 50% in size; luciferase read-out
MARV entry inh – Marburg virus entry inhibition; Marburg virus pseudotyped entry inhibition, cell reporter; control for the full effect not named in the record; about a third of the inactives were read at about 46 µM; Potency, µM (top dose mostly 37.8 µM), without a hit: at the top dose activity change, negative = inhibition, hits mostly inhibitors; 1.8% of 300,000 active; AID 540276; active = well fitted inhibition curve with a large enough effect; inconclusive = small, poorly fitted or top-dose-only effect, or effect the other way; inactive = flat fitted curve, though single readings scatter; tested in HEK293 cells; about a fifth of its hits are not listed in these tables; also: % is scaled to controls: 0 for no effect and ±100 for the full control effect; luciferase read-out
* hit, by the source's call; u = inconclusive; x = not tested or not shown; & = joins results of further samples; [ ] = dose if it differs, or a comment. Unless noted, calls follow the shape of the dose curve; as a rule, active = well fitted curve in the direction sought with a large enough effect; inconclusive = small, poorly fitted or top-dose-only effect, or another doubt; inactive = no such curve, though single readings can be large; an effect the other way counts as inactive or inconclusive. Potency is read from the fitted curve at half-maximal effect.

Compound	RE007 growth inh	Cruzain inh noDet	NS1 function inh	LASV entry inh	StopGo reporter	Cruzain Triton	MARV entry inh	SARS PLP yeast
COc1ccc(-c2noc(CNC(=O)c3ccc(OC)cc3OC)n2)cc1	x	5%	x	-29%[46.1 µM]	-12%	-10%	22%[46.1 µM]	x
COc1ccc(OC)c(-c2nc(C(=O)NCC3CCCO3)cc3c2[nH]c2ccccc23)c1 (centres undefined)	5%	x	8%	x	-16%	x	x	-26%
Cc1ccc(NC(=O)c2ccc(CN3CC(=O)N4CCCCC4C3=O)cc2)c(C)c1 (centres undefined)	10%	x	-5%	-10%[46.1 µM]	0%&-20%	x	x	5%
CC12COC3(C(=O)Nc4ccc(F)cc4)CC1CCC32C (centres undefined)	11%	-9%	-1%	2%	-22%	-4.0%	18%	-19%
COc1ccc(CNC(=O)C(C)N2C(=O)COc3ccc(C)cc32)c(OC)c1 (centres undefined)	4%	x	0%	4%	-15%	x	-13%[46.1 µM]	-5%
COc1cc(-c2nc3ccc(C)cn3c2Nc2ccc(Cl)cc2)ccc1O	x	23%	x	u	0%	-13%	u	x
COc1ccc(CCNC(=O)CCCn2ncn3c(cc4occc43)c2=O)c(OC)c1	4%	x	11%	x	0%	x	x	2%
Cn1cnnc1SCCC(=O)Nc1ccc(Cl)cc1	6%	0%	7%	-4%	18%	1.1%	7%	-6%
O=C(Cn1nc(-c2ccc(Cl)cc2)c2ccccc2c1=O)NN1CCOCC1	23%	x	0%	0%	-14%	x	-3%	-1%
CC/C(=N\NC(=O)c1c(-c2ccccc2)noc1C)c1ccc(C)o1	-23%	-27%	15%	u	-18%	0.0%	-13%	3%
CCOc1cccc2sc(N3CCN(C(=O)c4ccc5c(c4)CCCC5)CC3)nc12	x	-17%	x	u	u	-23%	x	x
CC(C)C(NC(=O)c1ccc(Cl)cc1)C(=O)O (centres undefined)	-1%	9%	3%	u	1%	0.0%	u	-1%
O=C(c1ccccc1)N1CCN(Cc2cccc(Oc3ccccc3)c2)CC1	-4%	7%	-27%	-26%	u	-3.5%	u	-7%
COc1cc2c(cc1OC)CN(c1ccc([N+](=O)[O-])cc1Cl)CC2	u	2%	-10%	-8%	u	-16%	u	-42%
Nc1nnc(Cc2ccc(Cl)cc2Cl)s1	7%	7%	-4%	24%	-15%	2.5%	2%	x
COC(=O)CNC(=O)C(C)NC(=O)CNC(=O)OCc1ccccc1 (centres undefined)	4%	2%	2%	12%	-23%	1.9%	9%	5%
CCOc1ccc(-c2c(C(=O)N/N=C/c3ccncc3)nnn2-c2nonc2N)cc1	10%	x	12%	10%[46.1 µM]	39%[activator]	x	-7%[46.1 µM]	23%
CC(C)(C)NC(=S)Nc1ccc(Br)cc1	8%	-9%	-53%	11%	40%[activator]	-0.8%	5%	4%
O=C(CCC1CCCC1)N1CCN(C(=O)C2CC2)CC1	2%	9%	-4%	-12%	10%	1.2%	8%	4%
COC(=O)C1=C(C)N(C)C(=S)NC1c1c(OC)ccc2ccccc12 (centres undefined)	1%	x	16%	-2%	0%	x	u	2%
CCN1/C(=C/c2cccc[n+]2C)Sc2ccc(OC)cc21	x	x	-4%	x	u	x	8%	-5%
COc1ccc(/C=N/Nc2ccc(C(F)(F)F)cc2[N+](=O)[O-])cc1O	4%	-18%	11%	0%	0%	-6.8%	u	-1%
Cc1ccc(CNC(=O)CN2CCC(C(N)=O)CC2)cc1	11%	7%	u	-12%	15%	10%	8%	4%
CC(C)(C)c1ccc(C(=O)NNC(=S)NC(=O)c2cccnc2)cc1	-10%	x	-43%	u	5%	x	u	0%
O=C(NCc1ccco1)C1CCN(C(=O)Cc2ccccc2)CC1	10%	8%	1%	-26%	11%	8.4%	2%	3%

Other structures follow:
Compound	RE007 growth inh	Cruzain inh noDet	NS1 function inh	LASV entry inh	StopGo reporter	Cruzain Triton	MARV entry inh	SARS PLP yeast
O=C(N/N=C/c1cccc2ccccc12)c1ccc(CN2CCOCC2)cc1	-11%	x	-4%	5%[46.1 µM]	-27%	x	-12%[46.1 µM]	-1%
O=C(CSc1nnc(NC(=O)c2ccco2)s1)Nc1ccc(F)cc1	-2%	x	1%	3%	0%	x	9%	-1%
CCN(CC1CCCO1)C(=O)c1cc(COc2cc(C)c(Cl)c(C)c2)on1 (centres undefined)	7%	x	-29%	x	27%	x	x	-9%
COc1ccccc1N1CCN(C(CNS(=O)(=O)c2cccs2)c2cccnc2)CC1 (centres undefined)	-4%	-1%	-7%	x	-18%	-2.7%	x	1%
Nc1nncn1C(=O)c1cccs1	2%	-9%	-17%	u	29%	-0.7%	5%	1%
COc1ccc(C(=O)NCCCNC(=O)c2cc3ccccc3[nH]2)cc1OC	-1%	x	-2%	x	0%	x	x	2%
O=C(Nc1cccc(F)c1)/C(=C/c1ccco1)NC(=O)c1ccco1	7%	x	9%	x	0%	x	x	-6%
C/C(Cc1ccccc1)=N\NC(=O)CNC(=O)c1ccc(Cl)cc1Cl	1%	x	0%	2%[46.1 µM]	-6%	x	u	0%
COc1cc(C(=O)Nc2nnc(C)s2)cc(OC)c1OC	-9%	-9%	-1%	x	5%	1.3%	x	-3%
O=C(O)c1[nH]c2ccccc2c1NS(=O)(=O)c1ccc(F)cc1	5%	x	7%	x	-4%	x	x	1%
CCCCC(=O)NCCNc1nc2c(c(=O)n(C)c(=O)n2C)n1Cc1ccccc1	-1%	2%	2%	-3%	-9%	-3.5%	u	0%
CCOC(=O)CSc1nc2ccc(Nc3nc(N4CCOCC4)nc(N4CCOCC4)n3)cc2s1	2%	u	5%	21%	2%	-2.8%	-4%	5%
CC12CCC(C(=O)N(CCCN3CCN(Cc4ccccc4)CC3)C1=O)C2(C)C (centres undefined)	-4%	x	-4%	17%	-21%	x	u	-1%
CC1=C(C)CC(C(=O)NCc2ccccn2)C(C(=O)O)C1 (centres undefined)	-10%	x	2%	2%[46.1 µM]	-10%	x	20%[46.1 µM]	0%
O=C(COc1ccccc1)N=C1SC2CS(=O)(=O)CC2N1CCc1ccccc1 (centres undefined)	-2%	x	14%	1%[46.1 µM]	-9%	x	-2%[46.1 µM]	11%
CCOC(=O)c1ccc(Nc2ccc([N+](=O)[O-])cn2)cc1	-5%	-3%	1%	9%	12%	-3.4%	u	4%
CN(C)c1cccc(C(=O)NCc2ccc3c(c2)OCO3)c1	-4%	x	-1%	-19%[46.1 µM]	21%	x	13%[46.1 µM]	2%
CSc1cc(C)nc(N(C)C(C)=O)n1	4%	-2%	-3%	-25%	20%	0.4%	-1%&-1%	-1%
CC(C)Oc1ccc(C(=O)NC2CCS(=O)(=O)C2)cc1 (centres undefined)	2%	1%	3%	u	-12%	8.1%	11%	-5%
CCOC(=O)C(C)N1N=C(/C=C/c2ccc(C)cc2)CCC1=O (centres undefined)	3%	u	-59%	-17%	4%	-7.3%	20%	-1%
O=C(NC(=S)Nc1ccc(CN2CCOCC2)cc1)c1cccc(F)c1	-13%	x	-13%	u	4%	x	u	-6%
O=C(NCCO)/C(=C\c1ccc([N+](=O)[O-])o1)NC(=O)c1ccccc1	-7%	x	1%	u	-12%	x	u	0%
COc1ccc(N2CCCCn3c2nc2c3c(=O)n(C)c(=O)n2C)cc1	6%	0%	-5%	-4%	-2%	3.5%	u	2%
NNc1nnnc2c1sc1nc(N3CCOCC3)c3c(c12)CCCC3	2%	x	1%	x	-3%	x	x	-1%
Cc1cc(NC(=O)CCC(=O)N(c2ccccc2)C(C(=O)NC2CCCC2)c2ccccc2F)no1 (centres undefined)	13%	x	9%	2%	-8%	x	u	1%

The listing continues.
Compound	RE007 growth inh	Cruzain inh noDet	NS1 function inh	LASV entry inh	StopGo reporter	Cruzain Triton	MARV entry inh	SARS PLP yeast
Cc1ccc(NC(=O)C2CCN(S(=O)(=O)c3ccc4[nH]c(=O)oc4c3)CC2)cc1F	-5%	x	-12%	-19%[46.1 µM]	-11%	x	u	3%
Cc1cccc(CNC(=O)C2CCC(CNS(=O)(=O)c3ccc4c(c3)CCCC(=O)N4)CC2)c1 (centres undefined)	x	9%	x	15%[46.1 µM]	-6%	1.5%	x	x
CCN(CC)c1ccc(NC(=O)C2=CCN(S(=O)(=O)c3ccc(F)cc3)CC2)c(C)c1	1%	-1%	-3%	-3%	-28%	-0.6%	8%	-3%
Nc1nonc1-c1nc2ccccc2n1Cc1ccccc1	44%	-15%	-43%	-15%	u	-7.1%	u	0%
Cc1ccc(Cl)cc1N1CCN(C(=O)C2CCN(S(=O)(=O)c3cnc[nH]3)CC2)CC1	10%	u	7%	2%	-18%	2.6%	-28%[46.1 µM]	2%
O=C(Nc1ccc(Cl)cc1C(=O)c1ccccc1)c1cc(Cl)cc(Cl)c1	x	4%	x	-1%[46.1 µM]	-7%	-1.9%	x	x
O=C(CCNS(=O)(=O)c1cccs1)NC1CCN(Cc2ccccc2)CC1	6%	x	x	4%[46.1 µM]	-5%	x	-25%[46.1 µM]	2%
Cc1ccc(NC(=O)CN2C(=O)C(c3ccc(F)cc3)=NC23CCCCCC3)c(C)c1	x	4%	x	u	10%	-5.1%	-30%[46.1 µM]	x
Cc1cc(C)c2oc(-c3ccc(NC(=O)COc4ccccc4C)cc3)nc2c1	x	-7%	x	0%[46.1 µM]	11%	-0.2%	x	x
C=CCc1ccc(OCC(O)CN2CCC(Cc3ccccc3)CC2)c(OC)c1 (centres undefined)	11%	3%	0%	13µM*	-18%	0.2%	u	-5%
Cc1cccc(OCC(=O)OCc2cc(=O)n3nc(C4CCCCC4)sc3n2)c1	x	4%	x	9%[46.1 µM]	-1%	-2.5%	x	x
CC(C)C(=O)Nc1ccc(Cl)cc1-c1nc2ccccc2[nH]c1=O	-6%	x	-2%	-10%[46.1 µM]	-11%	x	-4%[46.1 µM]	11%
Nc1nc(-c2ccc(-n3nncc3-c3ccco3)cc2)cs1	5%	x	-1%	-17%[46.1 µM]	-2%	x	-28%[46.1 µM]	-7%
